# TRPML1 ag: activates the human TRPML1 channel; Q9GZU1; activation, % (test concentration not listed); AID 624414; TRPML1-expressing cells, Ca2+ dye fluorescence, FDSS; host cell line not named in the record; reference of the full effect not given here; 0.12% of 410,000 active; in the data active = activation above about 50%; inconclusive = about 30% to 50%; inactive = below about 30%; note: 0% is about no effect; the text of the record puts the active cut at 80%
#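 Tet-induced TRPML1-DL cells, 1,500 per well, cultured overnight, were loaded with a no-wash Ca2+ dye for 45–90 min. Calcium fluorescence was recorded on the FDSS for 110 s after compound addition, before the EC80 agonist (4 uM 54-4) was added.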
# TRPV1 potentiator: human TRPV1 potentiation; Q8NER1; TRPV1-expressing cells, Fluo-8 calcium influx, capsaicin EC20 potentiation; host cell line not named in the record; control for the full effect not named in the record; potentiation, % at 8.33 µM; 0.02% of 320,000 active; AID 540277; active means potentiation above 80%; inconclusive means 30% to 80%; inactive means below 30%; note: 0% is about no effect
#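 TRPV1-expressing cells were cultured overnight at 35.5C and loaded with Fluo-8 calcium dye for 40 to 90 min at room temperature. After a 10 s baseline, compound was added and calcium influx was read kinetically for 3 min (ex 480/em 520 nm).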
# TRPML1 inh: inhibitors of human TRPML1 channel. Q9GZU1. TRPML1-inducible cells, Ca2+ dye fluorescence, FDSS; stronger effect = lower value; inhibition of EC80 agonist-evoked calcium signal. activity change, negative = inhibition, % (test concentration not listed). 0.02% of 390,000 active; in the data active means activity change below about -50%; inconclusive means about -30% to -50%; inactive means above about -30%;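 note: stimulus is agonist 54-4 at its EC80 concentration; % is set by controls: 0 for no effect and ±100 for the full control effect; compound concentration not given in the record; the text of the record puts the active cut at -80%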
#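 Tet-induced TRPML1-DL cells loaded with Ca8 no-wash calcium dye were read kinetically on FDSS. Compound addition was followed by EC80 agonist 54-4 (4 uM final); inhibition was read over 110 s.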
# D2 potentiator: human D2 receptor positive allosteric modulation | P14416 | DiscoveRx D2 beta-arrestin cells, luminescence, 90 min; 100% = 57 uM dopamine signal | potentiation, % (test concentration not listed) | 0.23% of 360,000 active | AID 624464; active = potentiation of 50% or more; inconclusive = 30% to 50%; inactive = 30% or less;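 note: compound concentration not given in the record; tested on top of an EC20 dose of dopamine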
# Target sequence (P14416 whole entry, looked up): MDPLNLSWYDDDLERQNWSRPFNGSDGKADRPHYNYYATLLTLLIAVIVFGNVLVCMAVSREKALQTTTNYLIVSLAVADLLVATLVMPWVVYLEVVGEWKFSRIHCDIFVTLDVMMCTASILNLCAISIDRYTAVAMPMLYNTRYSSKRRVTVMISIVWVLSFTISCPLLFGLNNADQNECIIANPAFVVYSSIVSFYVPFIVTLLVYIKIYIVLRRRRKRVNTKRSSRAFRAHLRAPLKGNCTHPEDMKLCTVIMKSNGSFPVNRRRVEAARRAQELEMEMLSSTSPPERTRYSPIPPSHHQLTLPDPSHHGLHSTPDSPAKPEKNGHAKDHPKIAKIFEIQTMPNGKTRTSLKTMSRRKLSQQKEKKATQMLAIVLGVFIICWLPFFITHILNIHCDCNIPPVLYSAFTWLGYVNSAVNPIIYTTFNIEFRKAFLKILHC
#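 PathHunter D2 cells, attached overnight at 37 deg C, received compound in DMSO plus dopamine at EC20 (50 nM final) for 90 min at 37 deg C. Beta-arrestin recruitment was read as luminescence after 1 h with detection reagent at ambient temperature.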
# Six1-Eya2 blk: blocks human Six1 binding to Eya2; AID 651725; Q15475+O00167; 0.56% of 360,000 active; AlphaScreen GST-Six1/His-Eya2 binding, biochemical; stronger effect = lower value; control for the full effect not named in the record; activity change, % (test concentration not listed); in the data active = activity change below about -65%; inconclusive = about -30% to -65%; inactive = above about -30%; note: % is set by controls: 0 for no effect and ±100 for the full control effect; compound concentration not given in the record
#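 AlphaScreen luminescence read after one hour at 37 °C in darkness. Pin-transferred compounds met GST-Six1 and His-Eya2 protein (5X stock 250 nM/500 nM) plus glutathione donor and Ni-chelate acceptor beads (5X, 50 ug/mL).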
# CtBP-E1A inh: CtBP/E1A binding inhibition. AlphaScreen GST-E1A/His-CtBP binding, 1536-well; stronger effect = lower value; control for the full effect not named in the record. activity change, % (test concentration not listed). 0.49% of 340,000 active; in the data active means activity change below about -65%; inconclusive means about -30% to -65%; inactive means above about -30%; note: % is set by controls: 0 for no effect and ±100 for the full control effect; compound concentration not given in the record
#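 Protein mix (5X: 125 nM each GST-E1A, His-CtBP) was incubated with pinned compound 2 h at 37 deg C in dark, in 50 mM Tris pH 8.0 buffer with 300 mM NaCl. Glutathione donor and nickel acceptor beads followed; AlphaScreen signal read after 1 h.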
# The depositor's hits bear a star; ? = inconclusive; . = no result given; & = joins results of further samples.
nr	mol	Six1-Eya2 blk	CtBP-E1A inh	TRPV1 potentiator	TRPML1 inh	D2 potentiator	TRPML1 ag
1	Cc1ccc(N(C)S(=O)(=O)c2cccc(C(=O)NC3CC(C)(C)NC(C)(C)C3)c2)cc1	1	-1	-2	7	-4	-0.6
2	COc1ccc(/C=C/C(=O)Oc2cc(O)cc(O)c2)cc1	2	-2	-22	16	-2	1.0
3	CC(C)(C)C(=O)N1CCN(CCN2C(=O)c3cccc4cccc(c34)C2=O)CC1	4	-5	-3	12	2	-1.0
4	COc1cccc(NC(=O)C2C3C=CC(O3)C2C(=O)O)c1 (centres undefined)	-7	3	-9	2	1	-0.5
5	C=CCNC(=O)COc1cc(C)cc(C)c1C	5	5	-8	18	1	0.0
6	CCN1C(=O)[C@H]2[C@@H](c3ccc(C)cc3)N3C(=O)N(c4ccccc4)C(=O)[C@@]3(Cc3ccc(Cl)cc3)[C@H]2C1=O	-1	-4	18	-8	-72	0.5
7	CS(=O)(=O)c1ccc(Cl)c(NC(=O)COC(=O)CNC(=O)c2ccc3ccccc3c2)c1	10	0	-1	-7	-2	-0.8
8	COc1ccc(C(=O)Nc2cc3c(cc2C(=O)O)OCCCO3)c(OC)c1	-4	-2	-22	0	-5	-0.4
9	O=C(Cn1ncc(Cl)c(Cl)c1=O)NC(=O)NC1CCCCC1	-6	13	.	-20	-7	1.2
10	COc1ccc(OC)c(S(=O)(=O)N2CCCC(C(=O)NCc3ccccn3)C2)c1 (centres undefined)	6	-2	-4	15	-1	2.4
11	CC(=O)N1CCOc2ccc(S(=O)(=O)N3CCC(C(=O)Nc4ccc(C)cc4C)CC3)cc21	-3	-13	25	-25	-10	-0.5
12	CCN(CC)CCN1C(=O)C(=O)/C(=C(/O)c2ccc(S(=O)(=O)N3CCOCC3)cc2)C1c1ccc(Cl)cc1 (centres undefined)	0	-2	3	15	-5	0.3
13	COc1ccc(NC(C)=O)cc1S(=O)(=O)N1CCN(C(=O)c2ccccc2F)CC1	1	9	-9	-16	-1	0.8
14	CN(C)Cc1c(O)ccc2oc(Cc3ccccc3)cc12	-1	-6	-9	10	-27	1.7
15	CN1CCN2c3ncccc3Cc3ccccc3C2C1 (centres undefined)	-1	6	.	-6	-34	1.1
16	CCN(CC)C(=O)CSc1n[nH]c(=S)n1N	0	-2	3	.	-8	.

# Quoted from the listing.
# CN(C)Cc1c(O)ccc2oc(Cc3ccccc3)cc12 – CtBP-E1A inh: -6
# CN1CCN2c3ncccc3Cc3ccccc3C2C1 (centres undefined) – CtBP-E1A inh: 6
# CCN(CC)CCN1C(=O)C(=O)/C(=C(/O)c2ccc(S(=O)(=O)N3CCOCC3)cc2)C1c1ccc(Cl)cc1 (centres undefined) – D2 potentiator: -5
# O=C(Cn1ncc(Cl)c(Cl)c1=O)NC(=O)NC1CCCCC1 – D2 potentiator: -7
# COc1ccc(OC)c(S(=O)(=O)N2CCCC(C(=O)NCc3ccccn3)C2)c1 (centres undefined) – Six1-Eya2 blk: 6
# CCN(CC)C(=O)CSc1n[nH]c(=S)n1N – D2 potentiator: -8

# The list goes on:
nr	mol	Six1-Eya2 blk	CtBP-E1A inh	TRPV1 potentiator	TRPML1 inh	D2 potentiator	TRPML1 ag
17	CCc1cc2c(=O)c(-c3nc4ccccc4[nH]3)coc2cc1OC(=O)N1CCOCC1	3	0	-4	8	-4	-0.7
18	COc1ccc(C(CNC(=O)CNC(=O)c2cccc(Cl)c2)N2CCCC2)cc1 (centres undefined)	9	-9	-6	14	-25	1.3
19	CC1CC(C)CN(CCCNC(=O)c2ccc3nc(N4CCOCC4)sc3c2)C1 (centres undefined)	2	-5	24	6	-2	0.3
20	COc1ccc(/C=C/C(=O)O)cc1COc1cccc(C)c1	3	-13	-12	-6	-9	0.7
21	COc1ccc(Cl)cc1NC(=O)C1CC(c2ccccc2Cl)=NO1 (centres undefined)	-1	-1	.	-7	-7	-1.0
22	Cc1ccc(S(=O)(=O)c2ccc(NC(=O)c3c(F)cccc3F)cc2)cc1	0	.	12	-10	-6	0.4
23	Cc1csc(=Nc2c(C)n(C)n(-c3ccccc3)c2=O)n1Cc1ccccc1	-3&5	9&-12	6	-10&-6	-24&-16	-0.6&-0.1
24	NC(=O)CCC1NC(=S)N(Cc2ccccc2)C1=O (centres undefined)	6	2	-4	-5	-20	-0.7
25	C#CCN1C(C)=CC(=O)[C@@H](O)[C@H]1c1ccccc1Br	6	3	.	18	-4	3.4
26	CCOC(=O)NC1(C(F)(F)F)NC(=O)N(c2cccc(C(F)(F)F)c2)C1=O (centres undefined)	3	-1	-10	0	-19	-0.5
27	CCCCN(CCNP(=O)(OCC)OCC)CP(=O)(OCC)OCC	0	2	-5	1	-40	1.5
28	CSc1ccc(/C=C2\NC(=O)NC2=O)cc1	-1	.	.	11	-16	-0.9
29	COc1ccc(/C=C(/NC(=O)c2ccco2)C(=O)NCCc2ccccc2)cc1	3	1	8	-7	2	0.6
30	Cc1ccc(N/N=C(/Sc2nnnn2-c2ccccc2)C(=O)c2ccccc2)cc1	-78*	?	-12	1	-16	0.1
31	CN(CC(=O)NCCCN1CCOCC1)S(=O)(=O)c1ccc(Cl)cc1	9	-3	.	-9	4	0.3
32	COc1ccc(S(=O)(=O)N2CCN(C(=O)CSC(=S)N3CCCC3)CC2)cc1	4	.	-10	-11	3	-0.7
33	Nc1nc(N2CCCCC2)c2ncn(C3OC(CO)C(O)C3O)c2n1 (centres undefined)	2	5	.	-6	-3	-0.3
34	CCn1cc(C(=O)NCCc2ccccc2)c(=O)c2cc(F)c(N3CCN(C)CC3)cc21	1	-7	6	-11	-17	0.8
35	CC(NCc1cccnc1)c1ccccc1 (centres undefined)	16	-23	4	-8	1	0.7
36	O=C(N/N=C/c1ccc(Cl)cc1)C(=O)N1CCCCCC1	10	37	-2	2	11	-0.2
37	CCc1cccc(C)c1N1C(=O)CC(C)(C)CC1=O	7	.	-5	52	-16	-0.7
38	CCOC(=O)C1C(=O)C=C(c2ccc(C)cc2)CC1c1ccccc1 (centres undefined)	7	17	17	28	-9	4.7
39	Cc1ccc(NC2=NCC(=O)N2CCc2ccccc2)cc1C	-1	5	-22	8	-12	1.9
40	COc1ccc(C(=O)N/C(=C\c2ccc([N+](=O)[O-])cc2)C(=O)NC(CCSC)C(=O)O)cc1 (centres undefined)	-1	.	4	-25	1	14

# An excerpt from above in order of molar mass, ascending.
nr	mol	Six1-Eya2 blk	CtBP-E1A inh	TRPV1 potentiator	TRPML1 inh	D2 potentiator	TRPML1 ag
16	CCN(CC)C(=O)CSc1n[nH]c(=S)n1N	0	-2	3	.	-8	.
29	COc1ccc(/C=C(/NC(=O)c2ccco2)C(=O)NCCc2ccccc2)cc1	3	1	8	-7	2	0.6
10	COc1ccc(OC)c(S(=O)(=O)N2CCCC(C(=O)NCc3ccccn3)C2)c1 (centres undefined)	6	-2	-4	15	-1	2.4

# Following part:
nr	mol	Six1-Eya2 blk	CtBP-E1A inh	TRPV1 potentiator	TRPML1 inh	D2 potentiator	TRPML1 ag
41	O=C(O)C1CCC(Cn2c(SCc3cc(=O)n4cc(Cl)ccc4n3)nc3ccsc3c2=O)CC1 (centres undefined)	6	.	0	5	-5	0.4
42	CCc1ccccc1N(C(=O)c1snc(C(N)=O)c1N)C(C(=O)NCC1CCCO1)c1ccc(C)o1 (centres undefined)	-6	-2	-4	5	-1	-1.7
43	CNS(=O)(=O)c1ccc2c(c1)oc(=O)c1cc(S(=O)(=O)NC)ccc12	6	.	?	10	-26	3.4
44	COc1ccc(CCNC(=O)C(C)n2nc(C)c3c(C)n(-c4ccc(C)cc4)nc3c2=O)c(OC)c1 (centres undefined)	1	-2	3	-6	-10	2.7
45	O=c1c2ccccc2cnn1Cc1ccc(Br)cc1F	-1	15	-9	-7	-2	1.0
46	COc1ccc(C(CC(=O)O)c2cc(OC)c(OC)c(OC)c2)cc1OC (centres undefined)	3	7	.	1	-14	0.2
47	Cc1ccc(S(=O)(=O)Nc2c(C)n(C)n(-c3ccccc3)c2=O)c(C)c1	-5	3	21	20	3	0.5
48	CCOCCOc1cccc(C(=O)NC(c2ccccc2)C(C)C)c1 (centres undefined)	1	.	4	-10	-14	0.4

# Full records as entered above. Values in the order: Six1-Eya2 blk, CtBP-E1A inh, TRPV1 potentiator, TRPML1 inh, D2 potentiator, TRPML1 ag
# Results for O=c1c2ccccc2cnn1Cc1ccc(Br)cc1F : -1, 15, -9, -7, -2, 1.0
# Results for CCOCCOc1cccc(C(=O)NC(c2ccccc2)C(C)C)c1 (centres undefined) : 1, ., 4, -10, -14, 0.4
# Results for Cc1ccc(S(=O)(=O)Nc2c(C)n(C)n(-c3ccccc3)c2=O)c(C)c1 : -5, 3, 21, 20, 3, 0.5
# Results for COc1ccc(CCNC(=O)C(C)n2nc(C)c3c(C)n(-c4ccc(C)cc4)nc3c2=O)c(OC)c1 (centres undefined) : 1, -2, 3, -6, -10, 2.7
# Results for CNS(=O)(=O)c1ccc2c(c1)oc(=O)c1cc(S(=O)(=O)NC)ccc12 : 6, ., ?, 10, -26, 3.4

# Following part.
nr	mol	Six1-Eya2 blk	CtBP-E1A inh	TRPV1 potentiator	TRPML1 inh	D2 potentiator	TRPML1 ag
49	Cc1nc(SCc2ccccc2)c(C(F)(F)F)c(=O)[nH]1	-1	0	-13	8	-9	-1.4
50	Clc1ccccc1C1=CC(c2ccco2)n2nnnc2N1 (centres undefined)	-2	-2	-6	-3	0	-0.6
51	COc1cc(/C=C(\NC(=O)c2ccccc2)C(=O)NC(C(=O)O)c2ccccc2)cc(OC)c1OC (centres undefined)	-1	4	0	.	-7	.
52	CC(C)(CN1CCNCC1)NS(=O)(=O)c1ccc(Cl)cc1	-4	-9	6	7	-5	0.4

# High-throughput results deposited in PubChem BioAssay by National Center for Advancing Translational Sciences (NCATS).

# Rows were taken by chance; 0.95% or so of the library scored in one or more.
